Mtb hypoxia inh = reduces hypoxia-regulated biosensor signal in M. tuberculosis | M. tuberculosis hypoxia-regulated fluorescent reporter, fluorescence | fluorescence inhibition, % (test concentration not listed) | hit rate 0.1% among 300,000;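 active = 35 to 45% if threefold the growth effect, above 45% if 1.5-fold the growth effect; inactive = the rest, general growth blockers included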;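 note: wells of about 50 µL received 100 nL stock; 0% = vehicle wells and 100% = reference inhibitor wells; whole bacteria with a GFP reporter of the hypoxia response; strong numbers were not always called active; many hits fall short of the cut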
Bead autofluor = compound fluorescence in toxin protease inhibitor counterscreen; compound autofluorescence counterscreen, microsphere flow cytometry; active compounds read high; fluorescence intensity (no concentration beside the values); hit rate 3.1% among 360,000; AID 624483;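 active = at least 3 SD above the mean of all compounds, about 16000 in these data; inconclusive = too few beads counted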;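 note: 100 nL of 1 mM stock went into each well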
RN4220 kill = S. aureus RN4220 growth inhibition; OD600, 16 h; inhibition, % (test concentration not listed); hit rate 0.33% among 330,000; AID 1259311;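 active = z-score of -3 or lower and OD600 up to 0.18 on both plates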;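 note: plate controls were untreated cells for no effect and reference antibiotic for full effect; stock transfer was 100 nL into about 80 µL; one replicate is shown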
BJeLR lethal = kills HRASV12-expressing BJeLR cells. BJeLR (HRASV12) viability, CellTiter-Glo ATP luminescence, 48 h; reference of the scale not given here. inhibition, % (concentration not given with the values). hit rate 0.17% among 300,000;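 active = replicate mean above 50%; inconclusive = above 50% but judged a plate artefact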;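 note: 50 nL library stock added to about 25 µL; numbers are from one replicate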
Sa ugtP lethal = kills S. aureus RN4220 lacking UgtP | growth inhibition, % (test concentration not listed) | AID 1259309 | S. aureus RN4220 ugtP deletion, OD600 growth, 16 h; some inactives read as strong as hits | hit rate 0.54% among 330,000;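 active = z-score under -3 and OD600 up to 0.15 on both plates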;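 note: plate controls were untreated wells for no effect and antibiotic for full effect; wells of about 80 µL received 100 nL stock; the first replicate is given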
PrP UTR inh = inhibition of PrP 5' UTR reporter expression. inhibition, % (test concentration not listed). cell-based PrP 5' UTR mRNA reporter, plate reader. hit rate 0.35% among 340,000;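 active = every replicate at 50% or more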;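 note: 0 = median of the neutral control wells; tested in H4 reporter cells; numbers are from one replicate; inactives centre near -14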
Mtb hypoxia inh growth = second read-out of Mtb hypoxia inh, no call of its own (marks repeat the call); growth inhibition, %; measured here: M. tuberculosis growth (absorbance);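 0% = vehicle and 100% = reference antibiotic; read after six days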
* hit, by the source's call; ? = inconclusive; · = no result given.

SMILES	Mtb hypoxia inh	Mtb hypoxia inh growth	Bead autofluor	RN4220 kill	BJeLR lethal	Sa ugtP lethal	PrP UTR inh
COc1ccc(S(=O)(=O)NCc2c(-c3ccccc3)noc2C)c(OC)c1	-2	6	3870	1.8	0	1	-42
CCOC(=O)C1C(=O)CC(C)(O)C(C(=O)OCC)C1c1ccc(Br)o1 (centres undefined)	·	·	·	-1.3	-2	-5	·
Cc1ccc(CN2CCCOCCS2(=O)=O)cc1	3	11	4161	8.6	-8	2	-38
CC(=O)Nc1cccc(/C(C)=N/NC(N)=S)c1	·	·	6918	·	-5	·	-15
O=c1[nH]ncc(N2CCN(C(c3ccccc3)c3ccccc3)CC2)c1Cl	1	9	2303	-1.0	-11	20	-19
O=C(CCC1CCCN(C(=O)CCCc2ccccc2)C1)N1CCN(c2ccccn2)CC1 (centres undefined)	9	6	4443	3.1	-7	1	·
Cc1c(NC(=O)/C(C#N)=C/c2ccc(-c3ccccc3Cl)o2)c(=O)n(-c2ccccc2)n1C	0	12	2129	-1.1	5	2	-11
COc1ccc(CN2CCN(S(=O)(=O)c3ccc(F)cc3)CC2)cc1OC	5	7	9891	0.7	5	3	-12
Nc1nc(NC2CCCCC2)nc(NCCO)c1[N+](=O)[O-]	9	8	2971	4.3	1	2	-12
CC(C)Cn1c(NCCN(C)C)nc2c1c(=O)[nH]c(=O)n2C	5	2	9233	1.7	5	2	-18
Oc1ccc(N=Nc2n[nH]c(-c3ccc(Br)cc3)n2)cc1	-11	6	8880	-3.3	-10	-10	-35
COc1cc2c(cc1OC)C1=C(C#N)CCC(=NC(=O)c3ccco3)N1CC2	·	·	2363	·	5	·	-4
Cc1cccc(NC(=O)CN2C(=O)c3ccccc3S2(=O)=O)n1	5	-2	6302	1.2	-5	1	-26
CC(C)Cc1nc2oc3c(=O)[nH]cnc3c2c2c1CCC2	3	-3	5822	-0.2	-1	1	-6
O=C(NCCCN1CCN(c2ccccc2F)CC1)C1CCN(S(=O)(=O)N2CCOCC2)CC1	12	3	3335	-13	-8	-6	-3
COc1ccccc1N1CCN(c2ccc3ccccc3n2)CC1	21	7	6383	1.9	3	27	-47
COc1ccc(CCNC(=O)C2CC(=O)N(C3CCCCC3)C2)cc1OC (centres undefined)	4	8	5166	-0.4	5	5	-12
CN1C(=O)[C@@H]2[C@@H]3C[C@@H]([C@H]4ON=C(c5ccc(Cl)cc5)[C@@H]34)[C@@H]2C1=O	11	9	2528	2.6	7	4	-33
COc1ccccc1OCc1nc(-c2cccc([N+](=O)[O-])c2)no1	5	17	4210	4.9	3	1	-7
COC(=O)[C@@]1(Cc2ccc(F)cc2)C2c3cc(C(=O)N(C)C)n(Cc4ccc(OC(F)(F)F)cc4)c3CC2CN1C(=O)c1ccccc1 (some centres undefined)	4	11	·	7.2	·	8	·
CCCCn1c(=O)c(C(=O)NN=Cc2ccc(F)cc2)c(O)c2ccccc21	7	-5	·	-6.3	·	34	·
COc1ccc(NC(C)C(=O)N/N=C/c2ccc([N+](=O)[O-])s2)cc1 (centres undefined)	·	·	4304	·	-15	·	-12
O=C(COC(=O)c1ccc(Br)o1)c1ccc(S(=O)(=O)N2CCCCC2)cc1	-11	-13	?	0.6	·	-2	-2
Cc1cc(F)ccc1NC(=O)c1cccnc1	-1	0	4168	3.6	-7	4	-11
Cc1cc(NC(=O)CSc2nnnn2-c2ccc(C)c(Cl)c2)no1	2	7	3145	0.1	-6	9	-17
The listing continues:
SMILES	Mtb hypoxia inh	Mtb hypoxia inh growth	Bead autofluor	RN4220 kill	BJeLR lethal	Sa ugtP lethal	PrP UTR inh
CCOC(=O)c1nnn(-c2nonc2-n2cccc2)c1-c1cccc([N+](=O)[O-])c1	14	9	3144	5.5	13	13	5
Cc1nc2cc([N+](=O)[O-])ccc2c(=O)n1-c1cccc(Br)c1	-3	4	3416	-4.3	-4	7	-17
Cc1cc(C[n+]2ccsc2N)c2ncccc2c1	7	4	4814	1.7	2	1	-8
O=C(CCCN1C(=O)/C(=C/c2cccc(Br)c2)SC1=S)Nc1ccccn1	14	11	5847	0.0	-1	-7	-21
CS(=O)(=O)c1ncc(CO)n1Cc1ccccc1	3	3	2142	-1.1	-3	-11	-26
O=[N+]([O-])c1ccc(NN=Cc2ccc(O)c(O)c2O)c(S(=O)(=O)N2CCOCC2)c1	14	0	·	12	·	6	·
O=C(Nc1ccccc1N1CCOCC1)C1Cc2ccccc2CN1C(=O)c1ccco1 (centres undefined)	·	·	3284	5.8	1	9	-5
O=C1C=C(c2ccccc2)C(=O)N1Nc1ccccc1	·	·	2787	4.5	-9	5	-1
O=C(O)CCC(=O)NCC1OCCc2ccccc21 (centres undefined)	8	10	11046	2.3	-4	7	-10
Cc1cc(C)n2nc(SC(C)C(=O)N(C)c3ccccc3)nc2n1 (centres undefined)	11	3	3442	9.3	·	5	-3
CC1CC2(CC(C)(C(=O)CSc3nc4ccccc4s3)OC2=O)C(=O)O1 (centres undefined)	7	19	23789*	8.4	-1	-10	-31
O=C(NC1CCCc2ccccc21)c1ccc(Cl)nc1 (centres undefined)	·	·	3773	0.7	-1	4	-16
CCc1n[nH]c2c1/C(=N\O)CC(c1ccccc1)C2 (centres undefined)	·	·	2721	·	5	·	-9
O=[N+]([O-])c1cccc(NC(=S)N2CCc3ccccc32)c1	18	3	5919	8.2	·	-7	-11
CCN1CCN(C(=O)C(Cc2ccccc2)NC(=O)c2ccc(Cl)c(S(=O)(=O)N(C)C)c2)CC1 (centres undefined)	1	2	8399	4.6	·	14	-10
Oc1nc(-c2ccc(Br)cc2)n2ccncc12	15	4	2169	4.8	-5	-1	-17
COc1ccc(N2CC(C(=O)N/N=C/c3c[nH]c4ccccc34)CC2=O)cc1 (centres undefined)	·	·	2495	·	3	·	-21
CSc1ncccc1C(=O)Nc1cccc(S(=O)(=O)N(C)c2ccccc2)c1	7	29	5960	1.0	·	0	-17
CO/N=C/C(C(C)=O)C(=O)Nc1ccc(Cl)cc1Cl (centres undefined)	·	·	2173	·	-3	·	-21
CCCOC(=O)N[C@@H]1C(=O)N2C(C(=O)OCCC)=C(C)CS[C@H]12	·	·	3504	·	3	·	-21
CN(c1ccc(C(=O)NCCCn2ccnc2)cc1)S(C)(=O)=O	19	6	3489	-1.3	-3	4	2
COc1ccccc1/C=N/Nc1nccnc1Cl	·	·	6330	·	-1	·	-64
Cc1cccc(C)c1NC(=O)CN1C(=O)COc2ccccc21	5	10	3850	-0.5	-2	17	-25
CC(C)c1ccc(NC(=O)CSc2n[nH]c(=O)n2-c2cccnc2)cc1	2	0	5821	0.5	11	4	-3
CC1CCc2sc(C(=O)Nc3ccc(N4CCOCC4)cc3)cc2C1 (centres undefined)	11	1	4243	4.8	7	5	2

5 compounds picked at random from those above, as already listed:
SMILES	Mtb hypoxia inh	Mtb hypoxia inh growth	Bead autofluor	RN4220 kill	BJeLR lethal	Sa ugtP lethal	PrP UTR inh
CSc1ncccc1C(=O)Nc1cccc(S(=O)(=O)N(C)c2ccccc2)c1	7	29	5960	1.0	·	0	-17
CC(=O)Nc1cccc(/C(C)=N/NC(N)=S)c1	·	·	6918	·	-5	·	-15
O=C(COC(=O)c1ccc(Br)o1)c1ccc(S(=O)(=O)N2CCCCC2)cc1	-11	-13	?	0.6	·	-2	-2
CC(C)c1ccc(NC(=O)CSc2n[nH]c(=O)n2-c2cccnc2)cc1	2	0	5821	0.5	11	4	-3
COc1cc2c(cc1OC)C1=C(C#N)CCC(=NC(=O)c3ccco3)N1CC2	·	·	2363	·	5	·	-4

More entries
SMILES	Mtb hypoxia inh	Mtb hypoxia inh growth	Bead autofluor	RN4220 kill	BJeLR lethal	Sa ugtP lethal	PrP UTR inh
CCC(c1nnc(SCC(=O)Nc2nnc(-c3ccccc3)o2)o1)N(C)C (centres undefined)	7	-1	3504	-0.2	-5	0	-13
CCCNC(=O)C(Cc1ccc(Cl)cc1)NC(=O)c1ccc(-c2ccccc2)cc1 (centres undefined)	5	4	3830	8.6	·	13	5
CCc1cc2cccc(C)c2nc1SCC(=O)Nc1nonc1C	3	0	4751	3.0	5	3	-20
C/C(=N\O)c1cccc(Br)c1	·	·	4675	·	-10	·	-41
COc1cccc(/C=N/NC(=O)c2ccc3nc[nH]c3c2)c1	·	·	3476	·	2	·	-16
Cc1cc(C)c(S(=O)(=O)N(C)CC(N)=O)c(C)c1	4	2	6962	3.2	10	5	-19
CCCCC(=O)Nc1nc2c(OC)cc([N+](=O)[O-])cc2s1	4	4	3101	3.7	3	-16	-26
COc1ccccc1CNC(=O)C(=O)c1cn(CC(=O)N2CCCC2)c2ccccc12	-3	-5	4527	2.2	4	7	-13
Cc1cc(C(=O)NCC(c2ccco2)N2CCCC2)c2ccccc2n1 (centres undefined)	11	0	7579	5.4	·	-1	-16
Cc1ccc(N(Cc2cc3ccc(C)cc3[nH]c2=O)S(=O)(=O)c2ccccc2)cc1	-5	6	5991	-1.6	-27	-6	-14
COc1cc(C=NNC(=O)c2ccc(Cn3cc([N+](=O)[O-])cn3)o2)cc(Br)c1O	5	7	·	1.0	·	0	·
CC1CN(C(C)CO)C(=O)c2cc(NS(=O)(=O)c3ccc(F)cc3)ccc2OC1CN(C)C(=O)Nc1ccc(C(F)(F)F)cc1 (centres undefined)	1	1	·	-1.2	·	-1	·
Fc1ccc(N2CCN(Cc3cnc(Oc4ccc(Br)cc4)s3)CC2)cc1	·	·	2389	-3.0	11	25	-22
CC(=O)c1ccc(S(=O)(=O)N2CCN(C(C)=O)CC2)cc1	8	0	3944	13	4	6	-12
Nc1nonc1-n1nnc(C(=O)N/N=C/c2ccc(Br)cc2)c1-c1ccc2c(c1)OCO2	·	·	5508	·	-4	·	3
Cc1ccc([N+](=O)[O-])cc1-c1[nH]c(-c2ccc(O)c(O)c2)nc1-c1ccccc1	-1	-6	16205*	1.8	-3	-16	-8
CC(C)(C)c1ccc(S(=O)(=O)N2CCNC(=O)C2)cc1	9	8	3931	2.1	·	3	-19
Cc1ccc(S(=O)(=O)N(CC(=O)N2CCOCC2)C2CCCCC2)cc1	5	12	23611*	4.7	-7	-4	-14
CCCCc1c(C)nn(-c2nnc3c4ccccc4n(CC)c3n2)c1C	8	13	3082	-4.3	-3	-23	-7
Fc1ccc(C2=Nn3c(nnc3-c3n[nH]c4c3CCC4)SC2)cc1	·	·	4012	2.9	8	6	-5
O=C(Nc1ccc([N+](=O)[O-])cc1)Nc1ccc(Cl)cc1F	3	4	3604	8.7	2	-10	-26
Cc1cc(=O)[nH]c(NN=C2CCCC/C2=C\c2ccccc2)n1	7	14	·	5.4	·	6	·
Clc1cccc(Oc2ncc(CN3CCOCC3)s2)c1	10	11	21630*	6.1	4	7	-31
CCC1(c2ccc(F)cc2)NC(=O)N(CC(=O)Nc2cc(S(=O)(=O)N(C)C)ccc2Cl)C1=O (centres undefined)	-1	2	5093	-0.9	0	-19	-33
CS(=O)(=O)N(CC(=O)O)c1cccc(Cl)c1	·	·	2967	-0.8	3	-3	-21
The results go on:
SMILES	Mtb hypoxia inh	Mtb hypoxia inh growth	Bead autofluor	RN4220 kill	BJeLR lethal	Sa ugtP lethal	PrP UTR inh
Cc1ccc(CN2CCN(CC(=O)NN=Cc3ccc(C)o3)CC2)cc1	6	0	·	-1.6	·	-1	·
CC(=O)Nc1cccc(C(=O)/C=C/c2ccc(N(C)C)cc2)c1	2	5	6083	6.8	4	-6	-50
CCOC(=O)C(Cc1ccnc2ccccc12)=NO	8	8	4056	3.8	·	3	-29
OC1CSc2nc3ccccc3n2C1 (centres undefined)	17	1	4537	4.2	3	-1	-29
COc1ccc(C(=O)OC(COc2ccccc2)Cn2ccnc2)cc1 (centres undefined)	·	·	4399	0.3	2	0	-16
O=C(Cn1cnc2c(nnn2Cc2ccccc2)c1=O)NCc1ccccc1Cl	3	2	4281	6.7	5	4	-17
COc1ccc(O)c(C(=O)/C=C/c2cc3ccccc3o2)c1	·	·	2319	2.3	-2	10	0
CCCCC1CC(/C(C)=N/NC(N)=O)OC1=O (centres undefined)	·	·	2190	·	-9	·	-16
CCCCc1cc(=O)oc2cc(C)cc(OCC(=O)NCc3cccnc3)c12	-2	9	6210	2.6	-3	2	-23
CC(C)C(NS(=O)(=O)c1ccc2c3c(cccc13)C(=O)N2)C(=O)O (centres undefined)	·	·	6000	4.3	1	-4	-40

Source: PubChem (several laboratories)
